# Screens (PubChem)
# KCNQ2 inh – KCNQ2 potassium channel inhibitors, primary screen, cell-based, CHO-K1, FluxOR thallium flux, B-score (AID 2156). O88943. 1.1% of 310,000 active. 20 min; hits give low values; only compounds with negative scores are shown here; some inactives read as strong as hits. B-score at 10 µM;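 active = fluorescence ratio B-score at most minus 3 library SDs, with starting brightness B-score within 2 library SDs, cut at about -5.5 in these data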
# Target sequence (O88943 whole entry, looked up): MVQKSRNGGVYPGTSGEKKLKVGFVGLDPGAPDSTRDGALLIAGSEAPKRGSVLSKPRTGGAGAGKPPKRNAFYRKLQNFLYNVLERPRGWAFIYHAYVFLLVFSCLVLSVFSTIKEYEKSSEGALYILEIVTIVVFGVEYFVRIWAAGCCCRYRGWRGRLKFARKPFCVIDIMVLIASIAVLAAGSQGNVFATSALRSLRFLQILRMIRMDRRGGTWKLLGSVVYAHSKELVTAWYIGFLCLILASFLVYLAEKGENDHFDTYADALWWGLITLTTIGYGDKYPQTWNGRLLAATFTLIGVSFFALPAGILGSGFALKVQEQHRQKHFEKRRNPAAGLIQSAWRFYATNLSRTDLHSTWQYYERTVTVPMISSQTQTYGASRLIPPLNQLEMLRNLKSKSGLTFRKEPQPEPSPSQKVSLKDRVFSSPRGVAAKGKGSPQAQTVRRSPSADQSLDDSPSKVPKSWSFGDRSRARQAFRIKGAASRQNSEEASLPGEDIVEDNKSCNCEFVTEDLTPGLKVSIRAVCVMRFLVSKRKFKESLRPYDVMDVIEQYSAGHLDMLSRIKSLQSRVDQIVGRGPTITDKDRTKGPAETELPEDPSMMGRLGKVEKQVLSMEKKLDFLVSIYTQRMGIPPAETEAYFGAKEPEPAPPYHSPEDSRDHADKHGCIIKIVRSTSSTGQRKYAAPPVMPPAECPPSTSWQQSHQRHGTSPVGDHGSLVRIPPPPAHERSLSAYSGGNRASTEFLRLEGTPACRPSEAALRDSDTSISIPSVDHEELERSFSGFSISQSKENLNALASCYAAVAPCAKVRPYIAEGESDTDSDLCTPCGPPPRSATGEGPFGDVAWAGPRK
# KCNQ2 inh baseline – second read-out of KCNQ2 inh, no call of its own (marks repeat the call); B-score; measured here: initial fluorescence intensity artifact check;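 brightness before thallium and not channel activity; 0 = typical well and far values either way flag optical interference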
# * = called active by the depositor; i = inactive. An excerpt; count on the stated rates, not on these rows.
Compound,KCNQ2 inh,KCNQ2 inh baseline
CCC(=O)N1C(C(=O)NCc2ccc(OC)cc2)CSC1c1ccc(OC)cc1 (configuration not stated),i,-0.08
CCOc1ccc(-c2nnn(CC(=O)N3CCN(c4ccc(OC)cc4)CC3)n2)cc1OCC,i,-0.99
OCC[C@@H]1C[C@H](O)[C@@H](O)[C@@]2(Cc3ccccc3CO2)O1,i,1.23
Nc1cccc(-c2cn3cc(C(F)(F)F)cc(Cl)c3n2)c1,i,0.59
CCOc1ccc(NC(=O)CN(C)C(=O)c2cc(-c3ccncc3)nc3ccccc23)cc1OCC,i,0.06
CCCOc1ccc2c3c(c(=O)oc2c1OCCC)CCC3,i,0.23
O=C1CC(Cc2ccccc2)C(=O)N1Cc1ccco1 (configuration not stated),i,-0.11
O=c1[nH]c2ccccc2nc1/C=C/c1ccc(O)cc1,i,1.5
CC(=O)Nc1cccc(C(=O)OCC(=O)NNC(=O)c2cccs2)c1,i,-0.91
COC(=O)Nc1ccc(S(=O)(=O)N2CCC(Cc3ccccc3)CC2)cc1,i,0.6
COc1ccc2nc(SCC(=O)N3CCN(c4ccc(F)cc4)CC3)c(C#N)cc2c1,i,-0.38
Cc1cccc(C)c1NC(=O)CSC(=O)c1sc2ccccc2c1Cl,i,-0.01
COC(=O)c1sc(S(=O)(=O)N2CCC(C)CC2)c(C(=O)OC)c1C,i,0.83
CC(C)C(NC(=O)c1ccccc1)C(=O)NCCc1ccccc1 (configuration not stated),i,-2.44
O=C(Nc1ccc(-n2cccn2)cc1)C1CCCCN1Cc1cccc2c1OCO2 (configuration not stated),i,-1.7
COc1cc(OC)c2ccc(=O)oc2c1C(CCN1CCCC1)c1ccc(N(C)C)cc1 (configuration not stated),i,0.25
CCOC(=O)C1(Cc2cccc(Cl)c2)CCCN(C(=O)c2ccco2)C1 (configuration not stated),i,-0.32
COc1cccc(C2N=C(c3ccccc3C)NO2)c1OC (configuration not stated),i,-1.1
COc1ccc(CCNC2CC(=O)N(CCc3ccc(OC)c(OC)c3)C2=O)cc1OC (configuration not stated),i,-0.05
COc1ccc(N2C(=O)CC(Sc3nc(C)c4c(n3)CCCC4)C2=O)cc1 (configuration not stated),i,-0.93
Nc1ccc(-c2c3ccccc3nc3ccccc23)cc1,i,-0.57
Cc1cc(C)c(N=C2SCC(=O)N2Cc2ccco2)c(C)c1,i,0.02
CCOC(=O)CCCSc1nc(-c2ccc3c(c2)OCO3)cc(C(F)(F)F)c1C#N,i,-0.18
O=S(=O)(c1ccc(S(=O)(=O)N(Cc2cccs2)CC2CCCO2)cc1)N1CCCCC1 (configuration not stated),i,-1.58
COC(=O)Nc1ccc(S(=O)(=O)N2CCCC(C(=O)N3CCC(C)CC3)C2)cc1 (configuration not stated),i,-1.29

# Ordered by value in KCNQ2 inh baseline (largest number first): some entries from above.
SMILES	KCNQ2 inh baseline
OCC[C@@H]1C[C@H](O)[C@@H](O)[C@@]2(Cc3ccccc3CO2)O1	1.23
Nc1cccc(-c2cn3cc(C(F)(F)F)cc(Cl)c3n2)c1	0.59
COC(=O)Nc1ccc(S(=O)(=O)N2CCCC(C(=O)N3CCC(C)CC3)C2)cc1 (configuration not stated)	-1.29

# Filtered by structure, the entries above with a cyano group
Compound,KCNQ2 inh,KCNQ2 inh baseline
COc1ccc2nc(SCC(=O)N3CCN(c4ccc(F)cc4)CC3)c(C#N)cc2c1,i,-0.38
CCOC(=O)CCCSc1nc(-c2ccc3c(c2)OCO3)cc(C(F)(F)F)c1C#N,i,-0.18

# Next structures follow:
Compound,KCNQ2 inh,KCNQ2 inh baseline
O=C(NCCCn1ccnc1)c1cc2cc([N+](=O)[O-])ccc2oc1=O,i,1.84
Cc1ccc2nc(Cl)c(/C=C/C(=O)c3ccco3)cc2c1,i,0.03
Cc1ccc(Cl)cc1N1CCN(S(=O)(=O)c2ccc3c(c2)oc(=O)n3C)CC1,i,-0.66
Cn1c(N)c(C(=O)COC(=O)c2cc(C(F)(F)F)nc3ccccc23)c(=O)n(C)c1=O,i,-0.07
Cc1cccc(NC(=O)c2sc3ncn(CC(=O)N4CCN(c5ccccn5)CC4)c(=O)c3c2C)c1,i,0.53
N#CC1=C2N=C(N)c3ccccc3N2C2=C(C(=O)CCC2)C1c1ccc(Cl)cc1 (configuration not stated),i,0.31
COc1ccc(OCC(=O)NCC(c2ccc(OC)cc2)N2CCCCC2)cc1 (configuration not stated),i,0.25
O=C(Nc1cccc(-n2cccn2)c1)C1CCCN(Cc2ccc(C#CCCO)cc2)C1 (configuration not stated),i,-0.22
CCOC(=O)CCCNC(=O)CCNC(=O)c1ccc(OCC)cc1,i,0.57
CC1C(=NO)C(C)C(c2ccc(N(C)C)cc2)NC1c1ccc(N(C)C)cc1 (configuration not stated),i,1.67
COc1ccccc1CNC(=O)C1CCCN(S(=O)(=O)c2ccc3c(c2)CC(C)N3C(C)=O)C1 (configuration not stated),-6.92*,-0.34*
CCOc1ccc(Br)cc1C(=S)N1CCCC1,i,-0.5
Cc1noc(C)c1COc1cccc(C(=O)NCc2ccccc2Cl)c1,i,1.33
COc1cccc(C(=O)OCC(=O)NCCc2ccccc2)c1OC,i,-0.37
O=C(C1COc2ccccc2O1)N1CCN(Cc2ccc3c(c2)OCO3)CC1 (configuration not stated),i,-0.61
O=C(COc1ccccc1)NCC(=O)Nc1cccc2ccccc12,i,0.26
COc1ccc2nc(NC(=O)C3CCCN3S(=O)(=O)c3ccc(C)cc3)sc2c1 (configuration not stated),i,2.13
CCC(=O)OCC(=O)Nc1cc([N+](=O)[O-])ccc1Cl,i,1.66
CCCCNC(=O)c1ccc(CS(=O)(=O)c2ccccc2OC)o1,i,0.62
CCOc1ccc(-n2c(C)cc(C(=O)NS(=O)(=O)c3ccc(C)cc3)c2C)cc1,i,-2.32
Cc1ccc(S(C)(=O)=NC(=O)c2cc(C)on2)cc1 (configuration not stated),i,1.1
CC(=O)N1CCN(S(=O)(=O)c2cccc(C(=O)NC3CCCc4ccccc43)c2)CC1 (configuration not stated),i,-0.5
CCOc1ncnc2c1sc1nc(C)cc(C)c12,i,0.01
COc1ccc(C2/C=C\CN(CC3CC3)CC(=O)N2Cc2ccc(F)cc2)cc1 (configuration not stated),i,0.19
COc1ccc(N2CCN(C3CCCN(C(=O)CCN4CCCCO4)C3)CC2)cc1 (configuration not stated),i,-0.67

# (listing goes on)
Compound,KCNQ2 inh,KCNQ2 inh baseline
CCN(CC(=O)Nc1ccc(C(C)=O)cc1)CC(=O)Nc1ccccc1C(F)(F)F,i,-0.45
CCN(CC(=O)NC(=O)NCc1ccccc1)Cc1ccccc1,i,0.54
CCCCn1nnc(NC(=S)NC(=O)c2ccc(OCC)c([N+](=O)[O-])c2)n1,i,-0.95
N#CCCN(Cc1cccnc1)C(=S)NC(=O)c1ccc(S(=O)(=O)N2CCCC2)cc1,i,-0.84
COc1ccc(C(=O)NCc2ccccc2OC)cc1,i,0.64
COC(=O)CN1C(=S)N(c2ccc(Cl)cc2)C(=O)C1CC(=O)Nc1ccc(Cl)cc1 (configuration not stated),i,-0.62
COc1ccc(-n2nnnc2CNC(=O)c2ccc(S(=O)(=O)N3CCOCC3)cc2)cc1,i,-0.11
Cc1cc(Cl)ccc1Oc1cccc(C(=O)/C(C#N)=C/N(C)C)c1,i,-1.34
COCCCN1C(=O)c2ccc(C(=O)N3CCN(c4ccccc4OC)CC3)cc2C1=O,i,1.84
Cc1ccc(-c2cc(C(=O)NC3=NCCS3)c3cc(Br)ccc3n2)o1,-6.27*,1.61*
COC(=O)Nc1ccc(S(=O)(=O)Nc2ccc(O)cc2)cc1,i,1.02
COCC(C)N=C1NN=C(c2cc(C)n(Cc3ccccc3Cl)c2C)CS1 (configuration not stated),i,-1.46
COC(=O)COc1ccc(S(=O)(=O)NC2CCCCCC2)cc1,i,0.09
CNC(=S)Nc1ccc2nc(C)oc2c1,i,-0.06
CN(Cc1cn(C)nc1-c1cccc(Cl)c1)CC1CCCCO1 (configuration not stated),i,0.32
COC(=O)NCc1ccc(S(=O)(=O)N2CCOCC2)cc1,i,1.41
O=[N+]([O-])c1cc(S(=O)(=O)Nc2cccc(C(F)(F)F)c2)ccc1-n1nnc2ccccc21,i,-0.13
CNC(=O)CN1C(=O)C2C3C=CC(C3)C2C1=O (configuration not stated),i,-0.45
COc1cc(/C=N/Nc2ccc(C(F)(F)F)cn2)cc(OC)c1O,i,-0.46
CC(=O)c1ccc(NC(=O)C2=CC(c3cccs3)=NS(=O)(=O)N2C)cc1,i,-0.81
CN(C)C1=NC(=O)/C(=C/c2ccc(-c3ccc(S(N)(=O)=O)cc3)o2)S1,i,3.46
Cc1nccn1CCCNC(=O)CC1C(=O)NCCN1Cc1ccccc1C(F)(F)F (configuration not stated),i,-1.69
O=C1OC(Oc2ccccc2)(c2ccccc2)c2ccccc21 (configuration not stated),i,0.13
CSCC[C@H](NC(=O)Nc1cccc(C(F)(F)F)c1)C(=O)O,i,0.96
CCN(CC)S(=O)(=O)c1cc([N+](=O)[O-])ccc1N=Nc1c(O)n(C)c2ccccc12,i,0.04

# Six entries drawn at random from the list so far:
Compound,KCNQ2 inh,KCNQ2 inh baseline
COCCCN1C(=O)c2ccc(C(=O)N3CCN(c4ccccc4OC)CC3)cc2C1=O,i,1.84
CCN(CC)S(=O)(=O)c1cc([N+](=O)[O-])ccc1N=Nc1c(O)n(C)c2ccccc12,i,0.04
Cc1ccc(-c2cc(C(=O)NC3=NCCS3)c3cc(Br)ccc3n2)o1,-6.27*,1.61*
CCN(CC(=O)NC(=O)NCc1ccccc1)Cc1ccccc1,i,0.54
COC(=O)Nc1ccc(S(=O)(=O)Nc2ccc(O)cc2)cc1,i,1.02
CC(=O)c1ccc(NC(=O)C2=CC(c3cccs3)=NS(=O)(=O)N2C)cc1,i,-0.81

# The list goes on.
Compound,KCNQ2 inh,KCNQ2 inh baseline
CCOC(=O)C1C2C=CC3(CN(Cc4cccs4)C(=O)C13)O2 (configuration not stated),i,-0.57
COc1ccc(C(=O)Nc2cc(C(C)=O)c(/C=C/N(C)C)oc2=O)cc1,i,0.52
O=C(OCc1cc(Cl)ccc1OC(F)F)c1cccnc1,i,0.59
CC(C)=NNc1nc(-c2ccc(N3C(=O)CCC3=O)cc2)cs1,i,0.08
CCc1ccc(/C=N/NC(=O)c2cc(-c3ccccc3OC)nc3ccccc23)s1,i,1.58
CCOC(=O)c1ccc(NC(=O)Nc2ncc(Cl)cc2Cl)cc1,i,0.04
COC(=O)c1ccc(CN2CCN(CC(C)C)C(CCO)C2)cc1 (configuration not stated),i,0.04
COc1ccc(C(C#N)Nc2ccccc2C)cc1 (configuration not stated),i,1.97
O=C(CN(Cc1ccccc1)S(=O)(=O)c1ccc2c(c1)OCCO2)N/N=C/c1cccc(Br)c1,i,-0.62
COc1ccccc1CN1C(=O)c2ccccc2C1C(=O)NC1CCC(C)CC1 (configuration not stated),i,1.61
Cc1ccc(-c2nnc(N3CCN(C(=O)c4cccs4)CC3)c3ccccc23)cc1,i,-0.24
O=C(CSc1ncn[nH]1)Nc1nsc(-c2ccccc2)n1,i,0.03
CC1Cc2ccccc2N1C(=O)CSc1nnc(-c2ccccc2)c(-c2ccccc2)n1 (configuration not stated),i,0.12
COc1ccc(C(=O)/C=C/c2ccsc2)cc1CSCC(=O)O,i,0.51
Cc1ccc(C(=O)COc2nc(C)cc(C)c2C#N)cc1,i,0.3
CCOC(=O)C1=C(C)N=c2s/c(=C\c3cccc(OCC(=O)O)c3)c(=O)n2C1c1ccccc1OC (configuration not stated),i,-0.9
CC(=O)Nc1cccc(NC(=O)c2ccc3c(c2)CCN3S(=O)(=O)c2ccccc2)c1,i,-0.27
CN(C)CCCNC(=O)c1cc(C(=O)Cc2ccc(Cl)cc2)c[nH]1,i,0.88
Cc1c(CCOC(=O)CC23CC4CC(CC(C)(C4)C2)C3)sc[n+]1Cc1ccc([N+](=O)[O-])cc1,i,-1.06
Cc1ccc(-c2nnc3n2N=C(c2ccccc2Br)CS3)cc1,i,1.28
CC(C)(C)c1ccc(C(=O)NCCCNC(=O)c2ccccn2)cc1,i,0.02
COCCNC(=O)c1cn(Cc2c(F)cccc2Cl)nn1,i,1.67
O=C(CSc1nc(-c2ccccc2)c(-c2ccccc2)[nH]1)NCCN1C(=O)CSC1=O,i,-0.47
Cc1cccc(Nc2nc(N)c([N+](=O)[O-])c(N3CC(C)OC(C)C3)n2)c1 (configuration not stated),i,-1.2
CCc1nc2ccccc2n1CCC(C)C,i,-0.16

# More compounds follow.
Compound,KCNQ2 inh,KCNQ2 inh baseline
OCC1(CCOc2ccccc2)CCN(Cc2ccccc2C(F)(F)F)CC1,i,-1.58
CCC(Cc1ccccc1)NS(=O)(=O)c1c(C)nc2scc(C)n2c1=O (configuration not stated),i,0.93
Cc1ccccc1Cn1c(CN2CCN(C(=O)c3ccco3)CC2)nc2c1c(=O)n(C)c(=O)n2C,i,-1.26
O=C(CNc1cc(S(=O)(=O)N2CCCC2)ccc1OCC(F)(F)F)Nc1cccc(C(F)(F)F)c1,i,0.38
O=C(NNS(=O)(=O)c1ccccc1)C1CCN(S(=O)(=O)c2ccc(Cl)cc2)CC1,i,1.69
c1ccc(N2CCN(c3nc4ccccc4n4nnnc34)CC2)cc1,i,0.07
Cc1ccc(NC(=O)C2C3C=CC4(CN(Cc5cccnc5)C(=O)C24)O3)cc1 (configuration not stated),i,2.26
Cc1cc(Nc2nc3c(c(=O)n(C)c(=O)n3C)n2C)n(-c2ccc(Cl)cc2)n1,i,2.88
Cc1ccc(C(=O)C(C)Oc2ccc3ccc(=O)oc3c2)cc1 (configuration not stated),i,3.83
CCOC(=O)CNc1c(-c2ccc(F)cc2)nc2cnccn12,i,0.29
O=C(COc1ccccc1)Nc1cc(Cl)ccc1Cl,i,0.29
